HSD17B inh = inhibitors of human HSD17B10 dehydrogenase; Potency, µM (top dose mostly 57.1 µM), inactives show top-dose activity change, negative = inhibition, hits mostly inhibitors; recombinant HSD17B10, NADH fluorescence kinetic; many of its hits are not listed in these tables; 75,000 compounds, 7.6% hits; AID 893; Q99714; active means well fitted inhibition curve with a large enough effect; inconclusive means small, poorly fitted or top-dose-only effect; inactive means no such curve, though single readings can be large or run the other way;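 further: the protocol describes HADH2 (HSD17B10) and not the HSD17B4 of the title; nearly all actives have a fitted effect of over 70% in size; most hits overshoot -100% by far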
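Enzyme plus compound, 15 min room temperature; substrate mix added (NAD+ 1 mM, beta-hydroxybutyryl-CoA 90 uM final); plates read kinetically for NADH fluorescence. HADH2 was His-tagged, E. coli-derived, 20 nM.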
* hit, by the source's call; ? = inconclusive; & = joins results of further samples; [ ] = dose if it differs, or a comment. On the % scale 0 is the no-effect control and ±100 the full control effect; potency means the concentration at half of the fitted maximal effect.

no.	smiles	HSD17B inh
1	CCOc1ccc(C2NC(=O)c3ccccc3O2)cc1 (stereo not drawn)	?
2	CN(C)c1cccc(OC2C=CC(C#Cc3ccccc3)OC2CO)c1 (stereo not drawn)	-2%[11.4 µM]
3	C=CCNC(=O)c1ccc(OC)cc1OC	6%
4	O=C(Nn1c(C2CCC2)nc2ccccc2c1=O)C1CCC1	-2%
5	O=C(c1noc2c1CCCC2)N1CCN(c2ccc(F)cc2)CC1	4%
6	O=P1(c2ccccc2)C=Cn2c1cc1c2CCCC1 (stereo not drawn)	-19%
7	CN(C)c1nc(C(=O)Nc2ccccc2)nc(N(C)C)n1	-15%
8	O=C1CCc2cc(S(=O)(=O)N3CCC(C(=O)NC4CCCc5ccccc54)CC3)ccc2N1 (stereo not drawn)	4%
9	CC1(C)CCC2=C(O1)c1ccccc1C(=O)C2=O	12%
10	Cc1ccc(-n2c(SCC(N)=O)nnc2-c2ccccn2)cc1	2%
11	Cc1cc(NC(=O)Cn2nnc3sc4c(c3c2=O)CCC(C(C)(C)C)C4)no1 (stereo not drawn)	-16%
12	O=C(/C=N/O)NCCCCNC(=O)/C=N/O	8%[11.4 µM]

Ordered by count of non-hydrogen atoms (ascending): four of the compounds above.
no.	smiles	HSD17B inh
3	C=CCNC(=O)c1ccc(OC)cc1OC	6%
10	Cc1ccc(-n2c(SCC(N)=O)nnc2-c2ccccn2)cc1	2%
5	O=C(c1noc2c1CCCC2)N1CCN(c2ccc(F)cc2)CC1	4%
8	O=C1CCc2cc(S(=O)(=O)N3CCC(C(=O)NC4CCCc5ccccc54)CC3)ccc2N1 (stereo not drawn)	4%

More compounds:
no.	smiles	HSD17B inh
13	COC(=O)c1ccccc1NS(=O)(=O)c1ccc(O)c(C(=O)O)c1	13%
14	CC(C)c1nnc(NC(=O)C2CCCN2S(=O)(=O)c2ccc(Cl)cc2)s1 (stereo not drawn)	-1%
15	COc1cccc(-c2nc(NCc3ccccc3)c3ccccc3n2)c1	?
16	COc1cc2[nH]c3c(N4CCC(C(N)=O)CC4)ncnc3c2cc1OC	32µM*
17	CC1(C)CC(=O)C2=C(C1)OC(N)=C(C#N)C2Cc1ccccc1 (stereo not drawn)	6%
18	CC1CCC(C(C)C)C(OC(=O)COC(=O)c2ccc(=O)[nH]c2)C1 (stereo not drawn)	-16%
19	COc1cccc(N2C(=O)C3CCCN3C2c2ccc(N(C)C)cc2)c1 (stereo not drawn)	3%
20	N#CC1=C(N)Oc2n[nH]c(-c3ccccc3)c2C1c1cccnc1 (stereo not drawn)	-12%
21	Cc1csc(NC(=O)CSc2nc(C)nc3c2c(=O)n(C)c(=O)n3C)n1	6%
22	CC1=C/C(=C\c2ccc3c(c2)OCO3)C(=O)S1	9%
23	CC1CCCC(C)N1C(=O)CSc1nnc(C2CCCCC2)o1 (stereo not drawn)	3%
24	CCOC(=O)N1CCN(C(=O)c2ccc3c(c2)N(CC)CCS3)CC1	?

(continued)
no.	smiles	HSD17B inh
25	C=CCn1c(SCC(=O)Nc2sc(C)c(C)c2C(=O)OCC)nnc1-c1sc(N)nc1C	-24%
26	O=C(CSc1ncn[nH]1)Nc1ccc(Cl)c(Cl)c1	-1%
27	Cc1cc(Oc2ccccc2)nc(-c2ccccc2)n1	2%
28	COc1cccc(NS(=O)(=O)c2ccc(OC)c(OC)c2)c1	11%
29	Cc1c(NC(=O)c2cnn3c(C(F)(F)F)cc(-c4ccco4)nc23)c(=O)n(-c2ccccc2)n1C	-8%
30	Cc1ccccc1OC1C=CC(C#Cc2ccc(Br)cc2)OC1CO (stereo not drawn)	11%[11.4 µM]
31	CCCCCOC(=O)C1=C(C)N(C)C(=O)NC1c1cc(Br)c(O)c(OC)c1 (stereo not drawn)	-5%
32	Cc1cc(-n2c(C)cc(C(=O)CSc3nnc4sc5ccccc5n34)c2C)no1	6%
33	CCSc1nc(=S)n(CC)c(C)c1C(C)=O	-1%
34	Cc1cc(C(F)(F)F)nc(SCC(=O)Nc2cc(C)on2)n1	17%
35	COCCN1C(=O)c2oc3cc(C)c(C)cc3c(=O)c2C1c1ccc(O)cc1 (stereo not drawn)	-10%
36	COC(=O)c1ccc(NCC(=O)c2ccccc2)cc1	-3%

Part of the list above in another layout.
29) Cc1c(NC(=O)c2cnn3c(C(F)(F)F)cc(-c4ccco4)nc23)c(=O)n(-c2ccccc2)n1C
  HSD17B inh: -8%

28) COc1cccc(NS(=O)(=O)c2ccc(OC)c(OC)c2)c1
  HSD17B inh: 11%

Next part:
no.	smiles	HSD17B inh
37	CCCCCCN(C(=O)CCCCCN1C(=O)NC(c2ccc(Cl)cc2)C(C(=O)OCc2ccccc2)=C1C)C(C(=O)NCCCC)c1ccc(OCC(=O)OC)c(C(=O)OC)c1 (stereo not drawn)	-4%
38	Cc1ccc(NC(=O)NC2CCCCC2)cc1Cl	6%
39	CC(=O)NC1(c2cccc(F)c2)CCN(C(=O)Nc2ccc(C#N)cc2)CC1	11%
40	COCC(=O)N1CCC2(CCCN(Cc3nccs3)C2)CC1	2%
41	Cc1cc(NC(=O)CSc2nnc(C3CC3)n2N)no1	6%
42	Nc1nc(N)nc(CC(=O)O)n1	7%[11.4 µM]
43	CC(COc1cccc2ccccc12)CN1CCN(C)CC1 (stereo not drawn)	-23%
44	Cc1ccccc1CSc1ncc(C#N)c(N)n1	-10%
45	CC1(C)CC(=O)C2=C(C1)OC(N)=C(C#N)C2c1cccc(OC(=O)c2ccco2)c1 (stereo not drawn)	9%
46	CCN(CC)S(=O)(=O)c1cccc(-c2nnc(SCCOc3ccccc3)o2)c1	?
47	O=C1OCC(c2ccccc2)=C1c1ccc(S(=O)(=O)N2CCOCC2)s1	?
48	N#Cc1nc(-c2ccco2)oc1NCCCN1CCOCC1	25µM*

Following part:
no.	smiles	HSD17B inh
49	Cc1ccc(/C(C#N)=C\c2cn(C)c3ccccc23)cc1	0%
50	CC(=O)OC[C@@H]1O[C@@H](O/N=C2/C[C@@H](O)[C@@H](O)[C@@H]3[C@@H]4C(=O)N(c5cccc(Oc6ccccc6)c5)C(=O)[C@H]4CC[C@H]23)[C@H](OC(C)=O)[C@H](OC(C)=O)[C@@H]1OC(C)=O	7%[11.4 µM]
51	CCOC(=O)Nc1ccc(C(=O)NCC2CCCO2)cc1 (stereo not drawn)	9%
52	COc1ccc(CNC(=O)c2nnn(Cc3ccc(OC)cc3)c2N)cc1	7%
53	O=c1nc2s/c(=C\c3ccco3)c(=O)n2nc1Cc1ccccc1	?
54	COc1ccc(OC2C(O)COC2/C=C/c2ccccc2)cc1 (stereo not drawn)	3%&4%[11.4 µM]
55	Cc1nc2sc(C(c3cccs3)N3CCOCC3)c(O)n2n1 (stereo not drawn)	2%
56	Cc1nn(C)c(C)c1S(=O)(=O)N1CCCC(C(=O)NCCc2ccc(Cl)cc2)C1 (stereo not drawn)	9%
57	COc1ccc(-c2cc(C(=O)NCCN3CCOCC3)c3ccccc3n2)cc1	32µM*
58	CSc1ccccc1NS(=O)(=O)c1ccccc1	4%
59	CN(Cc1ccccc1)C(=O)CN(C1CCCCC1)S(C)(=O)=O	-24%
60	Cc1ccccc1-n1c(=O)c2ccccc2n2c(=O)[nH]nc12	0%

(further entries)
no.	smiles	HSD17B inh
61	COc1ccc(C)cc1NC(=O)COCC(=O)O	13%
62	CC1CC2(C)Oc3ccccc3C3OCC1(CO)C(C)C32 (stereo not drawn)	3%
63	COc1ccc(C2(NC(C)=O)CCN(C(=O)c3ccco3)CC2)cc1	7%
64	CC(=O)Nc1ccc(NS(=O)(=O)Cc2ccccc2)cc1	3%
65	CCOCCCn1c(SCC(=O)NC(C)C)nc2ccccc2c1=O	1%
66	COC(=O)c1ccccc1NC(=O)CN(C1CCCCC1)S(C)(=O)=O	-15%
67	COC(=O)CNC(=O)CNC(=O)Nc1ccccc1	13%
68	c1ccc2c(c1)oc1c(N3CCN(Cc4ccc5c(c4)OCO5)CC3)ncnc12	?
69	CCOC(=O)C1C(=O)OC(C)(C)C1C(C)C(=O)c1ccc(OC)cc1 (stereo not drawn)	7%
70	CCN(CC)S(=O)(=O)c1cccc(-c2nnc(SCCCC(=O)c3ccccc3)o2)c1	-16%
71	O=C(Nc1ncnc2c1ncn2C1OC(COC(=O)c2ccccc2)C(F)C1O)c1ccccc1 (stereo not drawn)	11%
72	Cc1cc(NC(=O)COc2ccc3oc4ccccc4c3c2)no1	-3%

The list continues.
no.	smiles	HSD17B inh
73	O=c1cc(N2CCC3(CC2)OCCO3)[nH]c(=O)n1-c1ccc(Cl)cc1	-9%
74	O=C1c2ccccc2C(=O)N1CCCCSc1nnc(-c2ccc(OC(F)F)cc2)o1	8%
75	COc1ccc(-n2c(C)cc(C(=O)COc3ccc(-n4cnnn4)cc3)c2C)cc1	3%
76	COc1ccc(N2CCN(CCCNC(=O)CCCn3c(=O)[nH]c4ccsc4c3=O)CC2)cc1	0%
77	Cc1cc(C(=O)CN2C(=O)NC(Cc3c[nH]c4ccccc34)C2=O)c(C)n1C (stereo not drawn)	1%
78	CCOC(=O)c1c(C)[nH]c(C)c1C(=O)COc1ccc(NC(=O)c2ccco2)cc1	-28%
79	CO[C@@H]1COC(=O)C/C=C\[C@@H](C)COC(=O)[C@H](Cc2ccccc2)NC(=O)C/C=C\[C@H]1C	7%[11.4 µM]
80	CNC(=O)[C@@]1(C)C=C[C@@H](Cc2ccccc2)N1C(=O)OC	23%
81	Cc1ccc2nc(CSc3nnc(-c4ccco4)o3)cc(=O)n2c1	?
82	CCOc1ccc(N2C(=O)CCC2=O)cc1	-3%
83	N#CN=C(N)c1ccccc1	6%
84	CC1CCN(C(=O)CSc2nnc(-c3ccco3)o2)CC1	2%

(next part)
no.	smiles	HSD17B inh
85	Cc1cc(-c2nnco2)c(C)n1-c1ccc(F)cc1	-4%
86	O=C(CCn1nc(-c2ccccc2)ccc1=O)N1CCN(c2ccccn2)CC1	-29%
87	CN(c1nc2c(c(=O)n(C)c(=O)n2C)n1CC(=O)c1ccccc1)C1CCCCC1	9%
88	CN(C(=O)c1ccccn1)c1nnc(-c2cccnc2)s1	355%[activator]
89	CC(C)(C)n1nnnc1C(c1cccnc1)N1CCN(C2CCCCC2)CC1 (stereo not drawn)	3%
90	CCCCN1C(=O)C2C(c3ccc(OC)cc3O)NC(CC(C)C)(C(=O)O)C2C1=O (stereo not drawn)	11%
91	COC(=O)c1ccccc1NC(=O)N1CSC[C@H]1C(=O)OC	49%[activator]
92	Cc1ccc([N+](=O)[O-])c(N)c1	2%
93	CC(C)CCNC(=O)c1ccc2c(c1)N(Cc1ccccc1)C(=O)CS2=O (stereo not drawn)	-4%
94	CCOc1ccccc1NC(=O)CCS(=O)(=O)c1cccc2nonc12	-1%
95	O=C1[C@H]2[C@H]3[C@H](O)[C@H](O)C/C(=N/OC[C@@H](O)COCc4ccco4)[C@H]3CC[C@@H]2C(=O)N1C1CCCCC1	2%[11.4 µM]
96	CCOC(=O)c1ccccc1NC(=O)COC(=O)c1ccc(C)c(S(=O)(=O)N2CCOCC2)c1	2%

(listing goes on)
no.	smiles	HSD17B inh
97	Cc1ccc2[nH]c(=O)c(CN(Cc3ccco3)C(=O)c3cccs3)cc2c1	1%
98	O=C(CCSc1ccccc1)NCCSc1ccccn1	0%
99	CCOc1ncccc1C(=O)NCC1COc2ccccc2O1 (stereo not drawn)	-1%
100	O=C(COc1ccc(-n2cnnn2)cc1)NC(=O)NCc1ccccc1	3%
101	COc1ccc(N2CCN(C(c3cccs3)C(C)NS(=O)(=O)c3ccccc3)CC2)cc1 (stereo not drawn)	-23%
102	Cc1ccc(C)c(OCC(=O)Nc2ccc3c(c2)OCO3)c1	2%
103	CCOC(=O)c1ccccc1NC(=O)CSc1nnc(COc2ccccc2C)n1C	-3%
104	COCCOC(=O)C1=C(C)N=C2SCCC(=O)N2C1c1cc(Br)ccc1OC (stereo not drawn)	-2%
105	CC(=O)OC1CC2C(C)(C)C(O)C=C[C@@]2(C)C2CC[C@@]3(C)C(c4ccoc4)OC(=O)C4OC43[C@]12C (stereo partly drawn)	-2%
106	Cc1ccccc1-c1cncnc1N1CCNCC1	-8%
107	COc1ccc(-c2csc(NCc3ccco3)n2)cc1C	-21%
108	CN(C)c1ccc(-c2nnn(CC(=O)N3c4ccccc4CCc4ccccc43)n2)cc1	25µM*

Following part
no.	smiles	HSD17B inh
109	CC1CCCN(c2nc3ccccc3nc2C(C#N)C(=O)OC2CCCCC2)C1 (stereo not drawn)	3%
110	CCN(CC)C(=O)C1CCCN(Cc2ccccc2F)C1 (stereo not drawn)	4%
111	Cc1nc(N)nc(C)c1Cc1ccccc1	-5%
112	Cc1ccc(N(CC(=O)N2CCN(C3CCCCC3)CC2)S(=O)(=O)c2cccnc2)cc1	7%
113	Oc1ccccc1C1Nc2cccc3cccc(c23)N1	?
114	CC[C@H](CC[C@H](C)[C@@H]1CC[C@@H]2[C@H]3CC=C4C[C@@H](O)CC[C@]4(C)[C@H]3CC[C@]21C)C(C)C	0%[25.6 µM]
115	CCn1cc(C(=O)NC2CCCCCC2)c2cc(OC)c(OC)cc2c1=O	-1%
116	O=C(CSc1nnc2ccccn12)NC(=O)NC1CCCC1	6%
117	C=CCN1C(=O)C(CC(=O)O)SC1=Nc1c(C)n(C)n(-c2ccccc2)c1=O (stereo not drawn)	5%
118	CCn1c(SCC(=O)Nc2ccccc2N2CCOCC2)nnc1-c1ccccc1	5%
119	Cc1c2cccc(Sc3ccccc3)c2c2c3c(cccc13)[S+](c1ccccc1)C2 (stereo not drawn)	-11%[11.4 µM]

An excerpt; rates above refer to the full screens.
